Bioassay records deposited in PubChem by several laboratories.
UCH37 inh = inhibitors of human deubiquitinating enzyme UCH37. Q9Y5K5. purified proteasome/UCH37, Ub-AMC cleavage fluorescence. inhibition, % (concentration not given with the values). 0.33% of 330,000 active;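 active = mean of two replicates above 20%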;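 note: 0% = compound-free wells with enzyme and 100% = wells lacking proteasome; stock transfer was 100 nL into about 20 µL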
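assay system = human UCH37 enzyme supplied as purified proteasome complex | amount = proteasome at 0.15 nM in the dispensed enzyme solution | schedule = 30 min compound-proteasome preincubation then 25 min substrate reaction, room temperature | measured by = fluorescence, ex 355 nm, em 460 nm | benchmarks = no-proteasome wells (full inhibition) and compound-free wells (no inhibition)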
HNF4A DNA FP = change in binding of human HNF4 alpha to DNA. P41235. HNF4a-FITC DNA binding, fluorescence polarization, 1 h. activity change, % at 10 µM. 0.3% of 360,000 active. AID 1224865; in the data active = activity change above about 30%, passing the limit was not always enough;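 note: controls were the assay level and a saturating level of protein; the project sought stronger binding though the title names inhibitors; some compounds called inactive have numbers as strong as hits; positive values seem to mean higher polarization but the record does not say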
FGF22 binding = shifts melting point of recombinant human FGF22; Q9HCT0; recombinant FGF22 thermal shift, SYPRO orange fluorescence; percent of sucrose octasulfate shift, DMSO zero; calls only at 9.99 µM; 1.5% of 340,000 active; AID 651658;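 active = melting point raised past a set limit in the mean and every replicate; inconclusive = no clear call; three in four hits are not shown here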
Target sequence (Q9HCT0 whole entry, looked up): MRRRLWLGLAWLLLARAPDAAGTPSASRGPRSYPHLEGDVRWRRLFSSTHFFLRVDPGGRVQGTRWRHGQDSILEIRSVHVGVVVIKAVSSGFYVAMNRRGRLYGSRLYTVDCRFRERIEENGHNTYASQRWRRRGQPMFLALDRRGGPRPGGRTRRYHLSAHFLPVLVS
Ecoli rRNA inh = inhibitors of bacterial rRNA selective over humanized ribosomes; AID 720706; E. coli WT GFP vs humanized-ribosome RFP mutants, fluorescence, 24 h; hits give low values; DMSO median 0, no signal -100; 1.6% of 350,000 active; GFP signal change (wild-type ribosome), % (no concentration beside the values);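 active = significant combined selectivity score with lowered wild-type GFP, culture density cut under 30%, mutant RFP and density less affected; inactive = any of these conditions unmet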; note: one replicate is shown; some compounds called inactive have numbers as strong as hits
Beta2AR agonist = human beta-2 adrenergic receptor agonism by FAP. AID 504454. response, % (test concentration not listed). 0.43% of 340,000 active. Am2.2-beta2AR cells, FAP receptor internalization, flow cytometry; reference of the scale not given here;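 active = response above a set limit, near 3 SD of response in nonfluorescent compounds, cut at about 42% in these data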;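 note: stock transfer was 100 nL into about 11 µL; a reference agonist was the positive control; negative values mostly stem from fluorescent compounds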
Target sequence (P07550 whole entry, looked up): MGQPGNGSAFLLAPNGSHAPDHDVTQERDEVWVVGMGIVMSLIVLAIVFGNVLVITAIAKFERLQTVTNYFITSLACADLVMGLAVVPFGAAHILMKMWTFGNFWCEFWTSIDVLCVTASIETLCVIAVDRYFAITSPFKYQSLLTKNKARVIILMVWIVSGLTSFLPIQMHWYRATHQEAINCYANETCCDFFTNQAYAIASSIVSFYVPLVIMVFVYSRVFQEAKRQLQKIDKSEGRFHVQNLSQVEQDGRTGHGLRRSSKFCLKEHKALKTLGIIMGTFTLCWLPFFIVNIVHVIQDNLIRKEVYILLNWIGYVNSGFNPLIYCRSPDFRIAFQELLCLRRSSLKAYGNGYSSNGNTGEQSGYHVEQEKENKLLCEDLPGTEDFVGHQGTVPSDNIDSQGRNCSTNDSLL
Ecoli growth = E. coli growth inhibition; Escherichia coli growth, OD600, 23 h; hits give low values; OD600 absorbance (test concentration not listed); 0.21% of 330,000 active; AID 1053175;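 active = OD600 absorbance below the run mean of sample wells minus 3.6 SD, in any replicate, cut at about 0.56 in these data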;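 note: stock transfer was 300 nL into about 60 µL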
ALR H2O2 inh = blocks human ALR sulfhydryl oxidase activity; P55789; purified ALR, DTT oxidation, H2O2 HRP-luminol luminescence; inhibition, % (no concentration beside the values); 3.8% of 290,000 active; AID 485317;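 active = mean and each replicate at 75% or more; inconclusive = only one of the two met; inactive = neither met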;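 note: stock transfer was 7.5 nL into about 7.5 µL; 0% = neutral wells and 100% = wells with inactivated enzyme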
Target sequence (P55789 whole entry, looked up): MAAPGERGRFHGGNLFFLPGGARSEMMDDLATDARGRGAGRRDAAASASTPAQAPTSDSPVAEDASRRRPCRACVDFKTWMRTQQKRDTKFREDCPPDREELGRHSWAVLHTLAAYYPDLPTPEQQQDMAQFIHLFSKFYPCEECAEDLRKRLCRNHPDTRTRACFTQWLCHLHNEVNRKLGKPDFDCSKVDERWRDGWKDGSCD
Ecoli rRNA inh OD600 = also measured in Ecoli rRNA inh; calls as there; OD600 change, %; measured here: OD600 growth;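 optical density of the mix in the first replicate; 0 = DMSO median and -100 = no signal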
Ecoli rRNA inh RFP = recorded beside Ecoli rRNA inh, whose call it bears; RFP signal change, %; measured here: RFP humanized mutant strains;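 first replicate; 0 = DMSO median and -100 = no signal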
An asterisk follows results filed as active; i = inactive; ? = inconclusive; . = not tested or not shown.

Order of values – Beta2AR agonist	Ecoli rRNA inh	Ecoli rRNA inh OD600	FGF22 binding	UCH37 inh	Ecoli growth	HNF4A DNA FP	Ecoli rRNA inh RFP	ALR H2O2 inh
> CC1CCc2nc(N)c(C#N)c(-c3cccn3C)c2C1 (stereo not drawn)
→ 0.7	.	.	.	-9.2	0.752	0.2	.	.
> COC(=O)[C@@]12CCCN1[C@H](c1ccc(-c3ccc(Cl)c(Cl)c3)cc1)[C@H]1C(=O)N(C)C(=O)[C@H]12
→ 10.5	-9.0	-11.2	i	2.4	0.77	2.2	-4.9	-9.8
> COc1ccccc1N(C)S(=O)(=O)c1ccc(C(=O)N2CCC2)cc1
→ -4.9	9.6	7.0	i	1.2	0.66	-3.1	-3.1	.
> Cc1ccc(C(=O)O)cc1S(=O)(=O)N1CCC(C(=O)O)CC1
→ -2.8	.	.	.	0.1	0.701	3.7	.	-6.2
> CSc1ccccc1C(=O)NCC(c1ccco1)N1CCCCC1 (stereo not drawn)
→ 1.6	13.7	7.7	i	0.7	0.687	-2.1	-1.1	0.0
> CN(c1ncc(C(F)(F)F)cc1Cl)n1cc(C(N)=O)c2ccccc2c1=O
→ -1.4	.	.	.	3.4	0.684	-1.0	.	-9.3
> CCC1S/C(=C(\C#N)C(=O)NCc2ccco2)N(c2ccc(F)cc2)C1=O (stereo not drawn)
→ 6.0	.	.	.	1.8	0.703	0.6	.	6.4
> COc1ccc(C(=O)NC(=S)N2CCN(c3ccccc3OC)CC2)cc1OC
→ 1.9	4.9	13.1	i	2.0	0.742	-3.5	6.4	-1.2
> O=C(N/N=C/c1cccs1)c1cccnc1
→ 2.5	2.8	2.7	i	.	.	-0.3	-3.0	-2.4
> Nc1ccccc1-c1nnn(CC(=O)N2CCCc3ccccc32)n1
→ -8.1	-8.7	-7.8	i	4.3	0.654	-2.2	-1.7	.
> CCOC(=O)c1cc2c(ccn2C)n1CC(=O)N1CCC(Cc2ccccc2)CC1
→ -3.6	.	.	.	3.0	0.677	3.8	.	-1.7
> Cc1nc2cc(C(=O)N3CCc4ccccc43)ccc2n1-c1ccc(F)c(F)c1
→ -5.1	-52.7	-77.8	i	1.6	0.671	3.0	-23.4	30.9
> NC(=O)CSc1nnc(Cc2csc(Nc3ccc(F)cc3)n2)n1Cc1ccccc1
→ -9.0	.	.	.	4.0	0.741	-11.0	.	29.5
> CCOC(=O)c1sc2nc(SCC(=O)N(CC)CC)n(CCCN3CCCC3=O)c(=O)c2c1C
→ -8.7	-8.0	0.1	i	4.5	0.677	-0.8	1.2	0.0
> COCCn1c(SCC(=O)N2CCCCC2)nc2c(c1=O)SCC2
→ -3.3	0.3	7.3	i	4.8	0.711	-0.9	1.7	-3.5
> Cc1ccccc1-n1c(CSC(=N)N)nc2ccccc2c1=O
→ -107.2	.	.	.	1.6	0.701	-0.1	.	38.0
> COc1ccc(C(=O)COC(=O)CCn2c(C)csc2=O)c(OC)c1
→ .	-7.8	-20.1	i	.	.	1.8	2.3	.
> Cn1c(=O)cc(N2CCN(C(=O)c3ccco3)CC2)[nH]c1=O
→ -1.2	9.9	13.1	i	1.9	0.754	-0.7	-2.3	8.0
> CN1C(N)=NC(=O)/C1=C/c1ccccc1F
→ 7.9	-0.1	6.5	i	1.9	0.718	-1.8	-0.1	-1.5
> COc1ccc(NC(=O)C2CC2)cc1NS(=O)(=O)c1ccc(F)cc1
→ -1.0	.	.	.	4.3	0.706	1.5	.	-5.6
> Cc1ccc(-n2ncc3c(=O)[nH]c(SCC(=O)N4CCN(c5ccccc5)CC4)nc32)cc1
→ 11.8	.	.	.	3.5	0.75	-3.4	.	-7.9
> CC(Oc1ccc(Br)cc1)C(=O)NCC(c1ccco1)N1CCCCC1 (stereo not drawn)
→ -5.7	2.0	5.0	i	.	.	2.2	1.1	.
> NC(=NCCc1ccccc1)NS(=O)(=O)c1ccc(F)cc1
→ -2.2	.	.	.	-0.1	0.64	-0.7	.	7.3
> COc1cc(-c2cc(=O)c3ccccc3o2)ccc1O
→ -9.4	1.6	2.8	i	-2.8	0.728	4.0	-1.1	99.3*
> COc1ccc(CCNC(=O)C2CC3Cn4c(nc5ccccc54)C3N2C)cc1 (stereo not drawn)
→ 2.0	3.4	1.5	i	0.4	0.645	2.0	-0.5	.
> CN(CC(=O)Nc1cccc(F)c1)C(=O)c1cccc(N2C(=O)CCC2=O)c1
→ -3.9	10.9	21.4	i	2.2	0.689	0.9	0.5	-2.7
> CSc1nc(N2CCOCC2)c2ccccc2n1
→ -1.0	-7.6	-5.1	i	-0.2	0.672	-1.8	-4.7	-2.6
> Cc1ccc(C)c(S(=O)(=O)Nc2ccc3cn[nH]c3c2)c1
→ 17.1	3.0	-19.2	i	0.1	0.662	0.6	5.0	2.9
> O=C(COc1ccc2ccccc2c1Br)Nc1ccncc1
→ -2.8	-4.4	2.3	i	3.4	0.723	1.5	-2.2	-2.7
> Nc1c(C(=O)c2cccs2)sc2nsc(SCCN3CCCCC3)c12
→ -421.9	19.1	2.9	i	.	.	76.8	40.3	2.4
> Cc1cccn2cc(CNC(=O)c3ccco3)nc12
→ 3.0	.	.	.	-2.2	0.67	-3.9	.	1.7
> Cc1ccccc1C(=O)Oc1ccccc1N1C(=O)C2CC=CCC2C1=O (stereo not drawn)
→ -0.2	.	.	.	0.4	0.687	-2.6	.	.
> Cc1ccc(C)c(N2CCN(C(=O)CCCn3c(=O)c4cccn4c4cccnc43)CC2)c1
→ 6.2	-17.0	-42.0	i	-1.8	0.679	-3.5	-4.1	1.0
> CCCC(=O)Nc1nnc(Cc2ccccc2)s1
→ -9.2	.	.	.	3.5	0.686	3.9	.	-3.5
> O=C(NCCCN1CCOCC1)c1ccc(-n2nc(C(F)(F)F)cc2-c2cccs2)cc1
→ -7.9	.	.	.	3.0	0.707	2.8	.	-3.0
> CC(C)(C)OC(=O)N1CCC[C@H]1C(=O)N/N=C/c1ccc2ncccc2c1
→ -10.3	1.4	5.8	i	.	.	-2.1	-0.2	-5.8
> COc1ccc(CCNC(=O)CNC(=O)Cn2ccc3ccccc3c2=O)cc1OC
→ 2.0	3.9	3.6	i	4.2	0.738	-1.5	-1.7	-4.4
> Cc1nc2ccccc2c2c(N)c3ccccc3n12
→ 0.1	17.1	-0.8	i	3.0	0.636	-6.8	1.2	?
> Cc1ccc(-c2onc3ccc(C(=O)/C=C/N(C)C)cc23)cc1
→ 5.0	9.7	8.3	i	10.4	0.678	0.5	-0.4	33.3
> CCOC(=O)[C@H]1[C@H]2COc3ccc(Cl)cc3[C@@H]2N2C(=O)c3ccc(F)cc3NC(=O)[C@@]12C
→ -2.3	-14.6	-26.8	i	0.8	.	2.1	-26.1	.
> Cc1cc(F)ccc1S(=O)(=O)N1CCCOC1CNC(=O)C(=O)NCc1cccnc1 (stereo not drawn)
→ -12.0	2.7	-7.7	i	-0.5	0.694	-3.5	0.0	-10.6
> CCN(CC)C(=O)C1CCCN(c2ccc([N+](=O)[O-])cc2[N+](=O)[O-])C1 (stereo not drawn)
→ -17.3	6.5	3.8	i	9.7	0.678	1.4	-1.5	-8.2
> O=C(C1=C[C@H](c2csc3ccccc23)C[C@H](OCCCCO)O1)N1CCN(Cc2ccc3c(c2)OCO3)CC1
→ -1.1	-36.7	-39.7	i	1.6	.	2.4	16.7	-9.0
> COc1ccc(-c2nc(CS(=O)CC(=O)NC3CCCC3)c(C)o2)cc1 (stereo not drawn)
→ -1.6	-4.3	2.3	i	1.3	0.702	-1.4	0.8	98.3*
> CC(C)(C)NC(=O)Cn1c(SCC(=O)N2CCCCCC2)nc2ccccc21
→ 4.9	.	.	.	0.6	0.646	31.6*	.	-15.8
> CCC(=O)Nc1nc2ccccc2n1Cc1ccccc1C
→ 8.8	.	.	.	1.1	0.686	3.2	.	0.3
> COc1ccc(CN2CCCCCC2)c(C)c1C
→ 6.4	.	.	.	-0.1	0.691	2.9	.	-2.8
> CC(Oc1ccccc1F)C(=O)NNC(=O)CC(C)c1ccccc1 (stereo not drawn)
→ -7.2	7.7	3.5	i	1.1	0.65	-2.4	2.5	-1.7
> Cc1cccc(C2NS(=O)(=O)N=C2N)c1 (stereo not drawn)
→ -1.7	.	.	.	-0.2	0.692	2.7	.	2.0
> C/C(N)=C(/C#N)C(=O)COC(=O)C1CCN(S(=O)(=O)c2cccs2)CC1
→ -3.4	6.3	-3.2	i	2.8	0.648	0.8	3.9	-8.1
> O=C(Nc1ccc(-n2ccc(C(F)(F)F)n2)cc1)Nc1cccc(Cl)c1
→ 18.8	-50.9*	-26.1*	i	.	.	0.4	-15.8*	-22.6
> COc1ccccc1NC(=O)c1ccc(COc2ccccc2Br)o1
→ -8.2	-8.7	-6.5	i	2.2	0.654	-1.4	1.5	-2.4
> COc1ccc(CCN(CC(=O)NC2CCCC2)C(=O)Cn2nnc(-c3ccc(C)o3)n2)cc1OC
→ -0.6	9.6	10.2	i	2.8	0.686	5.5	2.1	27.7
> O=[N+]([O-])c1cc(C(F)(F)F)cc([N+](=O)[O-])c1NCCN1CCNCC1
→ -6.6	3.1	10.1	i	6.8	0.653	-2.3	-3.2	-10.1
> CC(Nc1cccc2ccccc12)C(=O)N/N=C/c1ccc([N+](=O)[O-])cc1 (stereo not drawn)
→ -17.5	.	.	.	.	.	-1.6	.	-7.9
> COC(=O)c1ccc(NC(=O)c2ccc3nsnc3c2)cc1
→ 10.9	4.3	8.1	i	-12.3	0.668	-2.8	-1.0	-2.2
> COc1ccc(S(=O)(=O)c2c(C)c(NS(=O)(=O)c3ccccc3)cc(C)c2O)cc1
→ 6.1	-20.8	-15.7	i	1.8	0.729	0.2	-2.2	-25.9
> COC(=O)[C@@]12C[C@@H](CC(=O)NCc3ccc(OC)c(OC)c3)C(=O)N(Cc3ccc4c(c3)OCO4)C1=CCC(C)(C)C2
→ .	5.3	-5.1	i	.	.	-2.4	3.2	.
> CSc1ccc(CNC(=O)C2CCC(=O)N(CC3CCCCC3)C2)cc1 (stereo not drawn)
→ .	-2.4	-6.2	i	.	.	2.6	5.8	.
> CC(C)(C)CC(=O)NCCCCCCNC(=O)CC(C)(C)C
→ -5.9	.	.	.	0.7	0.659	4.6	.	-4.8
> O=[N+]([O-])c1cn(Cc2ccc(Cl)cc2)cn1
→ 8.7	.	.	.	0.9	0.627	2.4	.	-3.8
> COc1ccccc1C(CC(=O)N1CCCC1)c1ccc2c(c1)OCO2 (stereo not drawn)
→ -5.4	-11.9	-12.0	i	0.2	0.666	6.1	-1.0	-1.0
> CC(=O)NC(CC(=O)Nc1cc(Cl)ccc1-n1cncn1)c1ccccc1 (stereo not drawn)
→ 0.7	2.1	4.5	i	2.2	0.663	1.2	0.6	-30.4

An excerpt taken from the entries so far:
Order of values – Beta2AR agonist	Ecoli rRNA inh	Ecoli rRNA inh OD600	FGF22 binding	UCH37 inh	Ecoli growth	HNF4A DNA FP	Ecoli rRNA inh RFP	ALR H2O2 inh
> O=[N+]([O-])c1cc(C(F)(F)F)cc([N+](=O)[O-])c1NCCN1CCNCC1
→ -6.6	3.1	10.1	i	6.8	0.653	-2.3	-3.2	-10.1
> CC(Nc1cccc2ccccc12)C(=O)N/N=C/c1ccc([N+](=O)[O-])cc1 (stereo not drawn)
→ -17.5	.	.	.	.	.	-1.6	.	-7.9

Shown as a hit in HNF4A DNA FP (from the list above):
| Structure | Beta2AR agonist | Ecoli rRNA inh | Ecoli rRNA inh OD600 | FGF22 binding | UCH37 inh | HNF4A DNA FP | Ecoli rRNA inh RFP | ALR H2O2 inh |
| --- | --- | --- | --- | --- | --- | --- | --- | --- |
| CC(C)(C)NC(=O)Cn1c(SCC(=O)N2CCCCCC2)nc2ccccc21 | 4.9 | . | . | . | 0.6 | 31.6* | . | -15.8 |

Not all compounds are listed; count on the stated rates, not on these rows.
